# Screening data from PubChem.
# KCNQ2 block: KCNQ2 potassium channel inhibitors, primary screen, cell-based, CHO-K1, FluxOR thallium flux, B-score (AID 2156); Potassium voltage-gated channel subfamily KQT member 2 (Rattus norvegicus), O88943; 20 min; active compounds read low; only compounds with negative scores are shown here; some inactives read as strong as hits; B-score at 10 µM; hit rate 1.1% among 310,000;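 active = fluorescence ratio B-score at most minus 3 library SDs, with starting brightness B-score within 2 library SDs, cut at about -5.5 in these data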
# Target sequence (O88943 whole entry, looked up): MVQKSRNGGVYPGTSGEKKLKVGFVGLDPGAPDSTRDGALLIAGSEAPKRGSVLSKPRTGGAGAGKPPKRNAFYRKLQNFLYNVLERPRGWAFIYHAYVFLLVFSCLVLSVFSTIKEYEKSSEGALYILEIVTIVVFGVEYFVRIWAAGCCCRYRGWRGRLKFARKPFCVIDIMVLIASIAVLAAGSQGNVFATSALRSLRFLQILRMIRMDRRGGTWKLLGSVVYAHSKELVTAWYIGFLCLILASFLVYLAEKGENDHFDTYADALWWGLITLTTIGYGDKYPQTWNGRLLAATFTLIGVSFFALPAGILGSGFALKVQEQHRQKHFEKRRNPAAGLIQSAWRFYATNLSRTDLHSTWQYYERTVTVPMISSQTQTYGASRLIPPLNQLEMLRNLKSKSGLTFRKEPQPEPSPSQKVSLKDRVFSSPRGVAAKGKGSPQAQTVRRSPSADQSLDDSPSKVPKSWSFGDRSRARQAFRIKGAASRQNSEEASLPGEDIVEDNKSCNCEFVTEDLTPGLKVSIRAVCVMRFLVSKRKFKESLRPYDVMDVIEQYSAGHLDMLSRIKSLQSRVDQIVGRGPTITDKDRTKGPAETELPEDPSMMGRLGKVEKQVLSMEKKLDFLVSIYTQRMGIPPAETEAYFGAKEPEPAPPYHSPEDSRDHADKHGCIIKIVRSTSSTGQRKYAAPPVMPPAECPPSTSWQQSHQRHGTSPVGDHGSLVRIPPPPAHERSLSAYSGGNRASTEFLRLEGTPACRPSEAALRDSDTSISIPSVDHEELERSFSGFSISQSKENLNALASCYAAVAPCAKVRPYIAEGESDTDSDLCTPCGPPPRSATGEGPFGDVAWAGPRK
# KCNQ2 block baseline: further read-out of KCNQ2 block, marked with its call; B-score; measured here: initial fluorescence intensity artifact check;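 brightness before thallium and not channel activity; 0 = typical well and far values either way flag optical interference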
# * = called active by the depositor; i = inactive. Only part of the results is shown; rates above refer to the full screens.
KCNQ2 block	KCNQ2 block baseline	SMILES
i	0.08	Cc1nn(C)c(C(=O)NNC(=O)Nc2cccc(C(F)(F)F)c2)c1Cl
i	1.1	CNC(=S)N/N=C/c1cn(Cc2c(F)cccc2Cl)c2ccccc12
i	-0.09	CCC(Oc1ccc2c(c1)C(=O)CC(C)(C)O2)C(=O)NCCN1CCCCCC1 (configuration not stated)
i	-1.2	COc1ccc(NC(=O)c2sc(Cl)nc2-c2ccccc2)cc1
i	-0.29	COc1ccc(NC(=S)NNC(=O)Cn2nc([N+](=O)[O-])cc2C)cc1
i	-0.75	c1ccc(Nc2nc(Nc3ccccc3)nc(N3CCNCC3)n2)cc1
i	-0.16	Cc1c(CCC(=O)NCCCN2CCCC2=O)c(=O)oc2cc(O)ccc12
i	-0.21	CCC1CCCCN1C(=S)Nc1ccc(SC(F)F)cc1 (configuration not stated)
i	0.05	COc1ccc(OC)c(/C=C/C(=O)OCC(=O)Nc2cccc(Oc3ccccc3)c2)c1
i	2.8	Cc1ccc(C)c(N(CC(=O)N2CCCCCC2)S(C)(=O)=O)c1
i	1	O=C1OC(CCl)CN1Cc1ccc([N+](=O)[O-])cc1 (configuration not stated)
i	1.6	COc1ccccc1OCCCOc1ccc(C)cc1Br
i	0.64	Cn1c(CC(=O)Nc2ccc(F)cc2)c(Sc2ccccc2)c2ccccc21
i	2	CCOc1cc(Cl)c(NC(=O)CC)cc1OCC
i	-1.9	CC(C)[C@@H]1N[C@]2(C(=O)Nc3ccccc32)[C@@H]2C(=O)N(c3cccc(C(F)(F)F)c3)C(=O)[C@@H]21
i	0.04	COC(=O)c1ccc([N+](=O)[O-])c(CS(=O)(=O)c2ccc(Cl)cc2)c1
i	-0.03	COCC1CCCN(Cc2nc(-c3ccc4c(c3)OCO4)no2)C1 (configuration not stated)
i	-1.9	O=C1Nc2ccc(Br)cc2C1=Nc1cccnc1
i	-1.2	NC(=O)c1cc(S(=O)(=O)N2CC=C(c3ccccc3)CC2)cs1
-8.2*	1.1*	CC(/C=N/Nc1nc(N2CCCCC2)nc(N2CCCCC2)n1)=C\c1ccccc1
i	-0.16	CCc1cccc(NC(=O)C2CCCN(c3ncnc4c3nc3n4CCCCC3)C2)c1 (configuration not stated)
i	-1.2	O=C(Cc1ccccc1)Nc1ccnn1C1CCN(Cc2nccs2)CC1
i	0.68	O=C(c1cccc(Br)c1)N1CCN(S(=O)(=O)N2CCCCCC2)CC1
i	-0.26	Cc1cccc(NC(=O)COc2ccccc2C(=O)NC(C)c2ccccc2)c1 (configuration not stated)
i	1.3	COC(=O)Nc1ccc(S(=O)(=O)N2CCCCCC2)cc1
i	-1.8	CCCc1cc(=O)oc2c3c(c(Cl)cc12)OCN(CCCO)C3
i	0.78	Clc1cccc(Cl)c1/C=N/Nc1c(Cl)cncc1Cl
i	-0.09	CCN(CC)S(=O)(=O)N1CCC(C(=O)NCCN2CCOCC2)CC1
i	-0.41	COC(=O)C1CCN(S(=O)(=O)c2cn(C)c(=O)n(C)c2=O)CC1
i	0.78	CCc1ccc(NC(=O)C2CCCN(S(=O)(=O)c3ccc4c(c3)CCCN4C(C)=O)C2)cc1 (configuration not stated)
i	-0.3	Cc1ccc(NC(=O)CSc2nccn2Cc2ccco2)c(C)c1
i	-0.43	O=C(C1=C[C@@H](c2coc3ccccc3c2=O)C[C@@H](OCCCCO)O1)N1CCN(Cc2ccc3c(c2)OCO3)CC1
i	-1.4	CCOC(=O)N1CCC(N2C(=O)c3ccccc3C2Nc2ccc(S(=O)(=O)N3CCCCC3)cc2)CC1 (configuration not stated)
i	1.6	O=C(c1cc(Cl)cc(Cl)c1)N1CCOCC1
i	-0.01	COCCCNC(=O)COc1ccc(S(=O)(=O)Nc2ccccc2)cc1
i	-1.6	CCNC(=O)/C(C#N)=C/c1c(N2CCN(c3cccc(Cl)c3)CC2)nc2c(C)cccn2c1=O
i	-0.29	O=c1[nH]c2ccc(Cl)cc2c(-c2ccccc2)c1SC(=S)N1CCOCC1
i	2.6	COc1cccc(-c2cc(C(=O)NCc3ccco3)c3ccccc3n2)c1
i	1.3	Cc1nnc(SC(C)C(=O)NC2CCCCC2C)s1 (configuration not stated)
i	1.3	Cn1c(=O)c2cc(S(=O)(=O)NCCC(=O)NCCc3ccc(Cl)cc3)ccc2n(C)c1=O
i	0.03	NC(=S)N/N=C/c1ccccc1OC(=O)/C=C/c1ccccc1
i	-0.67	COc1ccccc1N=C1SC(C(=O)Nc2cccc(Cl)c2Cl)C(N)=C1C(N)=O (configuration not stated)
i	1.6	CC(C)NS(=O)(=O)c1ccc(CCC(=O)NCc2ccco2)cc1
i	-0.77	Cc1cc(C(=O)Nc2cccc3ccccc23)n(-c2ccccc2)n1
i	-0.11	COc1ccc(C)cc1S(=O)(=O)N1CCN(Cc2ccccc2)CC1
i	0.01	CCn1cnc2cc(NCc3ccc(Br)cc3)ccc21
i	1.6	O=C(COC(=O)c1cnc(Cl)c(Cl)c1)NCc1ccc2c(c1)OCO2
i	-2.3	CCNC(=S)N/N=C/c1ccc(OCCOc2ccccc2C)cc1
i	-0.31	COC(=O)[C@@H](NC(=O)NCc1ccccc1Cl)C(C)C
i	0.3	CC1CC(O)(Cc2ccccc2)C(C)CN1C (configuration not stated)
i	0.98	CC(=O)N1CCN(S(=O)(=O)c2ccc(S(=O)(=O)NC3CCCCC3)cc2)CC1
i	0.32	Cc1ccccc1NS(=O)(=O)c1cc(C(=O)NCc2ccco2)ccc1C
i	0.01	C/C(=N\S(=O)(=O)c1ccc(C)cc1)N1CCN(S(=O)(=O)c2ccccc2)C1C(C)C (configuration not stated)
i	-0.08	O=C(COC(=O)c1ccccc1)Nc1cc(Cl)ccc1Oc1ccccc1
i	22	CCN1CCN(Cc2c(O)ccc3c2O/C(=C\c2ccc(C)cc2)C3=O)CC1
i	-2.9	CCOc1ccc(C(=O)Nc2cc(Cl)ccc2-n2cncn2)cc1OC
i	0.3	Cc1ccc(S(=O)(=O)N(Cc2cccc(Cl)c2)C(=O)N2CCN(C)CC2)cc1
i	1.8	CSCCC(NS(=O)(=O)c1ccc2c(c1)OCCO2)C(=O)N(C)Cc1ccc(C)cc1 (configuration not stated)
i	1.3	O=[N+]([O-])c1ccc(Oc2ccc(S(=O)(=O)N3CCOCC3)cc2)cc1
i	-0.11	COC(=O)C1CCN(C(=O)c2cc(=O)[nH]c3ccccc23)CC1

# More structures
KCNQ2 block	KCNQ2 block baseline	SMILES
i	0.64	COc1cc(NC(=O)CN(c2cc(C)cc(C)c2)S(=O)(=O)c2c(C)noc2C)cc(OC)c1
i	-0.12	Cn1cc(Cl)c(C(=O)N/N=C/c2ccc3c4c(cccc24)CC3)n1
i	-0.93	COc1ccc(CCNC(=O)CS(=O)(=O)c2cn(CC(=O)N(C(C)C)C(C)C)c3ccccc23)cc1OC
i	2.4	Cc1ccc(C)c(Cn2ncc3ccccc32)c1
i	-2.2	Cc1ccc2[nH]c(C)c(CCNC(=O)C3CCCCC3C(=O)OCC(F)(F)F)c2c1 (configuration not stated)
i	-1.4	O=C(C1CC1)N1CCN(c2ccc(O)cc2)CC1
i	-0.33	CCC(C)NC(=O)CNS(=O)(=O)c1ccc(C)cc1 (configuration not stated)
i	-0.17	CC(=O)Nc1cccc(C(=O)/C=C/c2ccc[nH]2)c1
i	-1.6	COCCn1c(C)cc(C2=NNC(=Nc3ccc(OC)cc3)SC2)c1C
i	0.47	CCOc1ccccc1CNC(=O)c1ccccc1NC(=O)C1=CSCCO1
i	0.74	COC(=O)CCN(C(=O)c1ccc(Cl)c([N+](=O)[O-])c1)c1ccccn1
i	-0.59	O=C(O)C12C[C@H]3C[C@@H](C1)CC(n1ncc(N4CCN(c5ccccc5)CC4)c(Cl)c1=O)(C3)C2
i	-1.1	CC1Cc2ccccc2N1Cc1cc(=O)c(OCC(=O)Nc2ccccc2)co1 (configuration not stated)
i	0.3	COc1ccc(C(=O)CC(=O)C(=O)Nc2ccccc2)cc1
i	0.28	CCC(Sc1nc2cc3c(cc2c(=O)n1Cc1ccco1)OCO3)C(=O)Nc1ccccc1OC (configuration not stated)
i	1.1	CN(C(=O)COC(=O)c1ccc2c(c1)OCCO2)c1ccccc1
i	-0.25	Cc1cc(C)c(NC(=O)Cn2cnc3c(oc4ccccc43)c2=O)c(C)c1
i	0.85	CCCCC(=O)Nc1ccc(NC(=O)c2ccco2)cn1
i	1.2	CCn1c(-c2ccco2)nc2ccccc21
i	0.31	COc1cccc(-c2cc(C(=O)NC3CCCC3)c3ccccc3n2)c1
i	0.32	Clc1cccc(OCc2nnc(-c3ccccc3Br)o2)c1
i	-0.27	CC(OC(=O)CCOc1ccccc1)C(=O)Nc1ccc(Cl)cn1 (configuration not stated)
i	0.85	COc1cccc(CN2CCNC(=O)C2CC(=O)N(C)C2CCCCC2)c1OC (configuration not stated)
i	0.04	O=C(N/N=C/c1c[nH]c2ccccc12)C1COc2ccccc2O1 (configuration not stated)
i	-0.38	c1ccc(N2CCN(c3ccccc3)C2c2cccnc2)cc1
i	-0.22	N#Cc1cc2cc3c(cc2nc1N1CCCCC1)OCCO3
i	0.43	COc1ccc2c(c1)OC/C(=C/c1cccs1)C2=O
i	2.5	CN(C)Cc1c(C(=O)N/N=C/C=C/c2ccccc2)nnn1-c1nonc1N
i	-0.16	CCNC(=O)N(C(=O)NCC)n1c(C)nnc1C
i	0.22	c1ccc(-c2nc(NCc3cccnc3)c3oc4ccccc4c3n2)cc1
i	-0.54	CC(C)C(NC(=O)OCc1ccccc1)C(=O)OCC(=O)NCc1ccco1 (configuration not stated)
i	-1.3	O=C(COC(=O)Cc1n[nH]c(=O)c2ccccc12)Nc1cccc(C(F)(F)F)c1
i	-1.2	NNC(=O)CN1C(c2ccccc2Br)=Nc2ccc(Br)cc2C1c1ccccc1 (configuration not stated)
i	1.2	CSc1nc(-c2ccc(Cl)cc2)nn1C(=O)c1ccco1
i	3.7	Cc1cc(C)n(-c2ccc(C)c(Cl)c2)n1
i	0.06	NNC(=O)CSc1nnnn1-c1ccccc1
i	-2.4	COc1cc(-c2nnc(SCC3(c4ccccc4)OCCO3)o2)cc(OC)c1OC
i	1.3	N=C1C(c2nc3ccccc3[nH]2)=C(O)CN1c1ccc(CC(=O)O)cc1
i	-0.81	CCn1c(SCC(=O)N2c3ccccc3CC2C)nnc1-c1ccco1 (configuration not stated)
i	0.06	CCOC(=O)C1CCCN(C(=O)c2ccc3nc(-c4ccccc4)c(-c4ccccc4)nc3c2)C1 (configuration not stated)
i	1.2	Cc1csc2c(SCC(=O)NNC(=O)C(Cl)Cl)ncnc12
i	0.02	CSc1cccc(N2CC(C(=O)N(CC(C)C)c3c(N)n(Cc4ccccc4)c(=O)[nH]c3=O)CC2=O)c1 (configuration not stated)
i	1.2	Cc1ccc(CNC(=O)CCCn2c(=O)c3ccccc3n(CC(=O)NC3CCCC3)c2=O)cc1
i	-1.7	CC(C)N(Cc1nc(-c2ccc(Cl)cc2)no1)C(=O)CCCN1C(=O)c2ccccc2C1=O
i	1.9	O=C(COc1ccccc1Cl)NCCCNC(=O)c1ccco1
i	-1.4	COc1cc(NC(=O)c2ccc(Cl)cc2)c(Cl)cc1NC(=O)c1cccnc1
i	0.95	O=C1CC(NS(=O)(=O)c2cccnc2)CN1c1ccc(F)cc1 (configuration not stated)
i	1.8	CN(C)/C=C1\N=C(c2ccc(Cl)cc2Cl)OC1=O
i	0.48	O=C(CCC(=O)OCC(=O)c1ccc(Br)cc1)Nc1ccc(Br)c2cccnc12
i	-0.22	COC(=O)C1=C(N)Oc2cc(C)n(Cc3ccco3)c(=O)c2C1c1cccc(Cl)c1 (configuration not stated)
i	-0.48	O=C1CSC(c2cn(-c3ccccc3)nc2-c2ccc3c(c2)OCCO3)N1CCN1CCOCC1 (configuration not stated)
i	0.28	Cc1nc2ccccn2c1C(=O)NCc1cccnc1
i	-1.5	Cc1ccccc1-c1nc(-c2ccc(NC(=O)c3ccc(Br)o3)cc2)no1
i	-2	Cc1nnc(OCc2nc3ccccc3n2C)c2ccccc12
i	-1	COc1ccc(C(c2nnnn2CS(=O)(=O)c2ccc(C)cc2)N2CCN(c3ncccn3)CC2)cc1 (configuration not stated)

# Structures above that contain a furan ring, fused or not, in the order listed:
KCNQ2 block	KCNQ2 block baseline	SMILES
i	-0.3	Cc1ccc(NC(=O)CSc2nccn2Cc2ccco2)c(C)c1
i	2.6	COc1cccc(-c2cc(C(=O)NCc3ccco3)c3ccccc3n2)c1
i	1.6	CC(C)NS(=O)(=O)c1ccc(CCC(=O)NCc2ccco2)cc1
i	0.32	Cc1ccccc1NS(=O)(=O)c1cc(C(=O)NCc2ccco2)ccc1C
i	0.28	CCC(Sc1nc2cc3c(cc2c(=O)n1Cc1ccco1)OCO3)C(=O)Nc1ccccc1OC (configuration not stated)
i	-0.25	Cc1cc(C)c(NC(=O)Cn2cnc3c(oc4ccccc43)c2=O)c(C)c1
i	0.85	CCCCC(=O)Nc1ccc(NC(=O)c2ccco2)cn1
i	1.2	CCn1c(-c2ccco2)nc2ccccc21
i	0.22	c1ccc(-c2nc(NCc3cccnc3)c3oc4ccccc4c3n2)cc1
i	-0.54	CC(C)C(NC(=O)OCc1ccccc1)C(=O)OCC(=O)NCc1ccco1 (configuration not stated)
i	1.2	CSc1nc(-c2ccc(Cl)cc2)nn1C(=O)c1ccco1
i	-0.81	CCn1c(SCC(=O)N2c3ccccc3CC2C)nnc1-c1ccco1 (configuration not stated)
i	1.9	O=C(COc1ccccc1Cl)NCCCNC(=O)c1ccco1
i	-0.22	COC(=O)C1=C(N)Oc2cc(C)n(Cc3ccco3)c(=O)c2C1c1cccc(Cl)c1 (configuration not stated)
i	-1.5	Cc1ccccc1-c1nc(-c2ccc(NC(=O)c3ccc(Br)o3)cc2)no1
